Source: PubChem BioAssay
Arbovirus anti: antivirals against arbovirus infection; arbovirus infection cell-based antiviral screen; inhibition, % at 10 µM; 200,000 tested, 0.37% active;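 active means inhibition from about 30%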;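 further: bluetongue infection of BSR cells; cell survival read as ATP light after 72 h; 0% = infected wells without compound and 100% = uninfected wells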
YopH PTP inh: inhibitors of Yersinia enterocolitica YopH tyrosine phosphatase; fluorescence Ex485/Em525; inhibition, %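 (about 10 µM by stock and volumes)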; 140,000 tested, 0.16% active;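 active means inhibition of 50% or more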;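 further: controls were vehicle for no effect and minimum signal wells for full effect; inactives centre near -20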
Mtb bLac sens: beta-lactam sensitization of Mtb H37Rv. M. tuberculosis H37Rv growth with meropenem, percent inhibition; hits of this screen are not shown here. inhibition, % at 25 µM. 330,000 tested, 0.27% active;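 active means about 74% or more and at least 40 points above the plate without the antibiotic, then above 30% in a dose series; inconclusive means first-round hits that could not be retested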;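 further: growth measured after seven days incubation then overnight dye step; 0% = bacteria only wells and 100% = bacteria with antibiotic; twin plates without the antibiotic show which effects depend on it; some results filed as inactive read as strong as hits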
RecA splice inh: inhibitors of M. tuberculosis RecA intein splicing; AID 2221; cell-free RecA intein splicing, fluorescence; P9WHJ3; 290,000 tested, 0.75% active; inhibition, %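 (about 9 µM by stock and volumes)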; in the data active means inhibition above about 30%; inconclusive means no clear call, values can overlap the other calls;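 further: 0% = vehicle wells and 100% = reference inhibitor control wells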
Target sequence (P9WHJ3 whole entry, looked up, canonical isoform): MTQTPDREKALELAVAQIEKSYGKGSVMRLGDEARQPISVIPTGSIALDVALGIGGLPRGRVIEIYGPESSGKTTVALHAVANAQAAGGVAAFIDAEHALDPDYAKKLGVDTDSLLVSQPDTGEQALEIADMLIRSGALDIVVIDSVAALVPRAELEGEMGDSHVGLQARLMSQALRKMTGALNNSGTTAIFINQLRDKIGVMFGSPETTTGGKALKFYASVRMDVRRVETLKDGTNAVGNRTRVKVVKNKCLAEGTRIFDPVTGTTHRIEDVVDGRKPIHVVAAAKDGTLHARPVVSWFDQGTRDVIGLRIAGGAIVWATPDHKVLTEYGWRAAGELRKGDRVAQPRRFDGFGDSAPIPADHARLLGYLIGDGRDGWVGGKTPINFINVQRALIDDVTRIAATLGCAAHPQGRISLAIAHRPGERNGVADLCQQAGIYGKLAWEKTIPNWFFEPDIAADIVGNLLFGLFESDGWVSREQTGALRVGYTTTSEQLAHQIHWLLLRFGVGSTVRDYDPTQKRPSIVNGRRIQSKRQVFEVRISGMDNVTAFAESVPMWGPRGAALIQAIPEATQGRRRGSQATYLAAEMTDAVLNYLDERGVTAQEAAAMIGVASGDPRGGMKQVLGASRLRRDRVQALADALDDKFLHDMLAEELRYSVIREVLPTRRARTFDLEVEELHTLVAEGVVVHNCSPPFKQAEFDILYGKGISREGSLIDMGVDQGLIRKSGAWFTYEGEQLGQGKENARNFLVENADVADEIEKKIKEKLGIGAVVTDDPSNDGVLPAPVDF
Mtb growth: M. tuberculosis H37Rv growth inhibitors, H37Rv strain (AID 1626) | inhibition, % at 10 µM, or IC50 in µM where a hit was titrated | M. tuberculosis H37Rv growth inhibition; higher % means a stronger effect | 220,000 tested, 0.95% active;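 active means confirmed in a dose series; inconclusive means inhibition above 80% but not taken into the dose series; inactive means below 80% or under 30% at every dose of the series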;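 further: bacteria incubated seven days before Alamar blue readout; 0% = bacteria only wells and 100% = bacteria with antibiotic wells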
Arbovirus anti repeat: further read-out of Arbovirus anti, marked with its call; inhibition, %; measured here: 10K subset replicate screen; many hits read low in the repeat;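 first of two repeat runs on a subset; 0% = infected and 100% = uninfected wells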
* = called active by the depositor; ? = inconclusive; nt = not tested or not shown. Not all compounds are listed; the hit share may differ from the screen's.

SMILES	Arbovirus anti	YopH PTP inh	Mtb bLac sens	RecA splice inh	Mtb growth	others
c1ccc(C2Nc3ccccc3Oc3ccccc32)cc1 (stereo not given)	11	-6	55	16	15%
CCc1cc2c(=O)[nH]c(N3CCCC3)nc2s1	-2	-29	-1	-7.8	1%
COc1cccc(CNc2ncc(-c3ccccc3)n2C)c1	nt	nt	0	-0.6	nt
Cc1cc(OCC(=O)O)c2c3c(c(=O)oc2c1)CCCC3	3	-10	-4	-3.4	-3%
O=C(NN1CCCCC1)c1cccc(COc2ccc(Cl)cc2)c1	-3	-27	-7	1.6	10%
O=C(O)CCNc1cc2ccccc2cc1C(=O)O	-4	7	2	-5.1	-4%	Arbovirus anti repeat=-1
O=C(Nc1ccc(Cl)cc1)N1CCc2ccccc2C1	2	nt	-3	4.9	-1%
Cc1c(/C(O)=C2/C(=O)C(=O)N(Cc3cccnc3)C2c2cccs2)cnn1-c1ccccc1 (stereo not given)	12	-5	-16	-1.0	-7%
CCc1ccc(CNC(=O)CCS(=O)(=O)Cc2ccc(C)cc2)cc1	nt	nt	-1	1.7	nt
CC(C)N(Cc1ccccc1)C(=O)CC(=O)N(Cc1ccccc1)C(C)C	nt	nt	-2	3.0	nt
CCCCC(=O)Nc1ccc(S(=O)(=O)N2CCCCC2c2cccnc2)cc1 (stereo not given)	nt	nt	5	0.9	nt
NC(=O)COC(=O)CSc1cccc2cccc(Cl)c12	4	nt	9	2.1	3%
Cc1ccc(S(=O)(=O)CCC(=O)Nc2ccc3c(c2)OCO3)cc1	1	-40	-6	0.3	-8%
O=C(OCc1ccc(Cl)cc1)c1cccnc1Cl	1	nt	3	-2.9	-9%
COC(=O)c1ccccc1NC(=O)CSc1nnc(COc2cccc(OC)c2)n1C	9	-13	3	0.7	-3%
Cc1ccc(C)c(N2CCN(C(=O)c3csc(C)c3C)CC2)c1	5	-17	3	13	12%
Cc1onc(-c2ccccc2Cl)c1C(=O)Oc1cccc2cccnc12	7	nt	100	2.6	?
O=C(CN(C(=O)CNC(=O)c1ccco1)c1ccc(F)c(Cl)c1)NC1CCCCC1	nt	nt	4	-4.7	nt
O=C(Nc1cc(C(F)(F)F)ccc1N1CCOCC1)c1cncc(Br)c1	5	-28	17	nt	-5%
C/C=C/c1ccc(OCC(=O)Nc2cc(C(F)(F)F)ccc2N2CCOCC2)c(OC)c1	nt	nt	-10	0.0	nt
CCCOc1ccc(Cl)cc1CNc1ccccc1	5	nt	17	14	11%
CCCCn1c(N)c(N(CCOC)C(=O)CN(C)S(=O)(=O)c2ccc(F)cc2)c(=O)[nH]c1=O	nt	nt	-11	0.4	nt
CCOc1ccc(CC(=O)Nc2nccs2)cc1OCC	-3	nt	13	0.9	2%
CCOC(=O)Cn1c2ccccc2c2nc3ccccc3nc21	-4	-39	19	-2.3	8%
CC(=O)c1ccc(NC(=O)Cn2cnc(S(=O)(=O)N3CCc4ccccc43)c2)cc1	nt	nt	-3	-3.2	nt
The list goes on:
SMILES	Arbovirus anti	YopH PTP inh	Mtb bLac sens	RecA splice inh	Mtb growth	others
COc1cccc(OCC(O)CN2CCC(CN3C(=O)c4cccc5cccc(c45)C3=O)CC2)c1 (stereo not given)	-20	nt	81	-5.4	-4%
CCC(=O)N=c1n(C)c2ccccc2n1CCOc1ccccc1	-6	-10	8	-3.4	-10%
CC(=O)c1c(COC(=O)c2ccc(Cl)cc2)nc2ccccc2[n+]1[O-]	nt	nt	6	0.1	0%
O=C(CN1CCN(Cc2ccc(F)cc2)C1=O)NC1CCCC1	4	nt	-4	1.2	12%
CCN(CC)Cc1c(C(=O)N/N=C/c2ccc(C)o2)nnn1-c1nonc1N	nt	nt	-7	-0.3	nt
CC(C)C(C(=O)Nc1ccc2c(c1)OCCO2)N1C(=O)c2ccccc2C1=O (stereo not given)	7	-102	1	-3.7	-3%	Arbovirus anti repeat=0
Cn1c(N)c(C(=O)COC(=O)c2ccccc2NCc2ccco2)c(=O)n(C)c1=O	27	nt	4	-1.4	7%
Cc1cc(C)c(S(=O)(=O)N2CCOCC2)cc1C	3	nt	-5	-2.9	1%
O=C(Cn1ncc2c(=O)oc3ccccc3c21)N1CCCc2ccccc21	7	5	-1	-3.5	-1%
C=CCN1C(=O)/C(=C/c2ccc(N3CCOCC3)o2)C(=O)NC1=S	-1	-19	-2	-2.2	-4%
COc1cc2[nH]c(=S)nc(NC3CCCCCC3)c2cc1OC	-3	nt	15	11	3%
CCOc1cc2[nH]c(=O)n(CCCN3CCCC3=O)c(=O)c2cc1OCC	2	-14	-2	nt	-10%
Cc1cccc(C(O)(C(=O)NNc2ccc3ccccc3n2)c2cccc(C)c2)c1	-11	-9	8	-3.6	1%
CC(Oc1cccc2ccccc12)C(=O)N/N=C/c1cccnc1 (stereo not given)	nt	nt	9	1.4	nt
COc1cc(-c2cc(N)n(S(=O)(=O)c3ccccc3)n2)cc(OC)c1OC	-2	-39	19	-11	4%
Cc1cc(NC(=O)c2ccc(S(=O)(=O)N3CCOCC3)cc2)no1	5	nt	-5	-1.4	-4%
Cc1cc(C(=O)NC2CCCC(C)C2C)c2ccccc2n1 (stereo not given)	nt	nt	3	-7.0	nt
Cc1ccc(OCc2ccc(C(=O)Nc3ccc(C(N)=O)cc3)o2)c([N+](=O)[O-])c1	4	nt	4	-2.3	-5%
Cn1cccc1Cc1nnc(SCC(=O)NCCc2ccccc2)n1C	6	nt	-15	nt	7%
N/C(=N\OC(=O)c1cccc(F)c1)c1cccc([N+](=O)[O-])c1	nt	nt	66	1.9	nt
Cc1ccccc1CNC(=O)C(=O)NCC1CCCN1S(=O)(=O)c1ccccc1 (stereo not given)	nt	nt	-7	0.1	nt
O=C(Cc1ccccc1)Nc1ccc(-c2nnc(-c3ccco3)o2)cc1	-14	16	1	0.1	-1%
COC(=O)[C@@H]1C[C@H]2CC[C@H](O)C[C@H]2N1Cc1ccc(C(F)(F)F)cc1	nt	nt	-5	-1.0	-6%
CCCCCOc1ccc(C2C(C(C)=O)=C(C)Nc3ncnn32)cc1OC (stereo not given)	-2	-33	-4	0.1	nt
CN(C)C(=O)Nc1cnc2ccccc2c1	7	-16	-2	-1.3	3%	Arbovirus anti repeat=-1

A draw from above in order of length of the SMILES, lowest first.
SMILES	Arbovirus anti	YopH PTP inh	Mtb bLac sens	RecA splice inh	Mtb growth	others
COc1cccc(CNc2ncc(-c3ccccc3)n2C)c1	nt	nt	0	-0.6	nt
Cc1cccc(C(O)(C(=O)NNc2ccc3ccccc3n2)c2cccc(C)c2)c1	-11	-9	8	-3.6	1%
Cn1c(N)c(C(=O)COC(=O)c2ccccc2NCc2ccco2)c(=O)n(C)c1=O	27	nt	4	-1.4	7%

(cont.)
SMILES	Arbovirus anti	YopH PTP inh	Mtb bLac sens	RecA splice inh	Mtb growth	others
CC(C)CC(C)c1cc(N)nc2nc3ccccc3n12 (stereo not given)	5	nt	-5	-5.0	-5%
CC(=O)c1c(C)[nH]c(C(=O)N2CCN(S(=O)(=O)c3ccc(F)c(F)c3)CC2)c1C	nt	nt	-10	-6.8	nt
Cn1c(=O)n(C)c2cc(S(=O)(=O)NCc3ccco3)ccc21	2	-25	-6	0.9	-11%
CCCCNc1oc(-c2cccs2)nc1S(=O)(=O)c1ccccc1	-19	-14	3	0.9	2%
N/C(=N\OC(=O)Cc1ccc(-c2ccccc2)cc1)c1ccccn1	0	-22	2	2.8	-5%
COc1ccc(OC)c(NC(=O)CCNS(=O)(=O)c2ccc3c(c2)c(=O)n(C)c(=O)n3C)c1	3	nt	3	3.3	-1%
Cc1ccc(-n2nc(C)c(C3(O)C(=O)N(C)c4ccccc43)c2N)cc1 (stereo not given)	-8	-7	-3	4.9	-6%
CC(=O)C1=C(C)OC(N)=C(C#N)C1c1cc2cc(C)c(C)cc2nc1Cl (stereo not given)	10	-51	0	9.1	-15%
COC(=O)c1sc(N2C(=O)C(O)=C(C(=O)c3ccc(C)o3)C2c2ccc(F)cc2)nc1C (stereo not given)	7	24	1	-6.1	-9%
CCOc1cc(NC(=S)Nc2ccc(Cl)cc2)c(OCC)cc1NC(C)=O	5	nt	0	-0.4	-2%
CCN(CC)c1ccc(NC(=S)NCC2CCCO2)cc1 (stereo not given)	8	nt	-4	0.8	0%
COc1ccc(C(C(=O)NC2CCCC2)N(Cc2ccccc2)C(=O)c2nsc(Cl)c2Cl)cc1 (stereo not given)	-24	-27	6	17	-2%
COc1ccc(Cl)cc1NC(=O)C(=O)NCc1ccncc1	-10	nt	-8	0.3	-7%
C=CCn1c(SCC(=O)c2[nH]c(C)c(C(=O)OCC)c2C)nc2scc(-c3ccccc3)c2c1=O	-24	-17	41	0.7	-1%
CSCCNCc1c(C(=O)N2CCOCC2)nc2c(C)cccn12	-6	nt	-11	5.8	-14%
Oc1c(Br)cc(Br)cc1/C=N/Nc1ccc(Cl)nn1	nt	nt	99	-1.8	nt
O=C(c1ccc(Br)o1)N1CCN=C1SCc1cccnc1	2	-43	3	nt	-2%	Arbovirus anti repeat=-3
O=C1CN(C(=O)COc2c(Cl)cccc2Cl)c2ccccc2N1	nt	nt	4	0.4	nt
CC(C)c1cc(CNC(=O)CCc2nnc(CCCCc3ccccc3)o2)on1	nt	nt	0	0.5	-5%
CCN(CC)c1nc2n(c(=O)n1)CCO2	-4	-23	-5	0.8	-7%
Cc1nn(C)cc1C(C)Nc1nc2nonc2nc1N1CCCCC1 (stereo not given)	0	nt	3	-0.8	1%
Cc1c(C#N)c(N)nc(Cl)c1C#N	1	nt	-4	11	5%
CN1CCC(NC(=O)Nc2ccc(Br)cc2)CC1	nt	nt	-8	0.6	-2%
Cc1ccc(OCC(=O)N2CCCCC2)c(Br)c1	-1	5	-3	-0.3	3%
Cc1ccc2nc(NC(=O)CCCc3nc4ccccc4s3)sc2c1	12	-3	22	9.0	18%
COc1ccc(CCN2CC(C(=O)N(C)Cc3ccccc3OC)CCC2=O)cc1 (stereo not given)	nt	nt	2	1.0	nt
CCN(CC)c1ccc(/C=N/NS(=O)(=O)c2ccc(C)c([N+](=O)[O-])c2)cc1	4	5	-6	-0.1	21%
Cc1ccc([N+](=O)[O-])cc1N	0	nt	-5	0.4	-3%
CC(=O)Nc1cccc(Nc2nc(-c3ccccc3)nc3ccccc23)c1	6	nt	-6	-3.0	-2%

In the list so far, 15 contain a Cl atom:
SMILES	Arbovirus anti	YopH PTP inh	Mtb bLac sens	RecA splice inh	Mtb growth	others
O=C(NN1CCCCC1)c1cccc(COc2ccc(Cl)cc2)c1	-3	-27	-7	1.6	10%
O=C(Nc1ccc(Cl)cc1)N1CCc2ccccc2C1	2	nt	-3	4.9	-1%
NC(=O)COC(=O)CSc1cccc2cccc(Cl)c12	4	nt	9	2.1	3%
O=C(OCc1ccc(Cl)cc1)c1cccnc1Cl	1	nt	3	-2.9	-9%
Cc1onc(-c2ccccc2Cl)c1C(=O)Oc1cccc2cccnc12	7	nt	100	2.6	?
O=C(CN(C(=O)CNC(=O)c1ccco1)c1ccc(F)c(Cl)c1)NC1CCCCC1	nt	nt	4	-4.7	nt
CCCOc1ccc(Cl)cc1CNc1ccccc1	5	nt	17	14	11%
CC(=O)c1c(COC(=O)c2ccc(Cl)cc2)nc2ccccc2[n+]1[O-]	nt	nt	6	0.1	0%
CC(=O)C1=C(C)OC(N)=C(C#N)C1c1cc2cc(C)c(C)cc2nc1Cl (stereo not given)	10	-51	0	9.1	-15%
CCOc1cc(NC(=S)Nc2ccc(Cl)cc2)c(OCC)cc1NC(C)=O	5	nt	0	-0.4	-2%
COc1ccc(C(C(=O)NC2CCCC2)N(Cc2ccccc2)C(=O)c2nsc(Cl)c2Cl)cc1 (stereo not given)	-24	-27	6	17	-2%
COc1ccc(Cl)cc1NC(=O)C(=O)NCc1ccncc1	-10	nt	-8	0.3	-7%
Oc1c(Br)cc(Br)cc1/C=N/Nc1ccc(Cl)nn1	nt	nt	99	-1.8	nt
O=C1CN(C(=O)COc2c(Cl)cccc2Cl)c2ccccc2N1	nt	nt	4	0.4	nt
Cc1c(C#N)c(N)nc(Cl)c1C#N	1	nt	-4	11	5%
